TRPC6 act: mouse TRPC6 channel activation. HEK293-TRPC6 membrane potential dye fluorescence; active compounds read high. B-score at 10 µM. actives 0.13% (n = 310,000);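 active = B-score of the integrated fluorescence ratio above library mean plus 3 SD, and starting fluorescence ratio within library mean plus 5 SD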;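 also: higher score means more depolarization so channel activation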
Target sequence (Q61143 whole entry, looked up): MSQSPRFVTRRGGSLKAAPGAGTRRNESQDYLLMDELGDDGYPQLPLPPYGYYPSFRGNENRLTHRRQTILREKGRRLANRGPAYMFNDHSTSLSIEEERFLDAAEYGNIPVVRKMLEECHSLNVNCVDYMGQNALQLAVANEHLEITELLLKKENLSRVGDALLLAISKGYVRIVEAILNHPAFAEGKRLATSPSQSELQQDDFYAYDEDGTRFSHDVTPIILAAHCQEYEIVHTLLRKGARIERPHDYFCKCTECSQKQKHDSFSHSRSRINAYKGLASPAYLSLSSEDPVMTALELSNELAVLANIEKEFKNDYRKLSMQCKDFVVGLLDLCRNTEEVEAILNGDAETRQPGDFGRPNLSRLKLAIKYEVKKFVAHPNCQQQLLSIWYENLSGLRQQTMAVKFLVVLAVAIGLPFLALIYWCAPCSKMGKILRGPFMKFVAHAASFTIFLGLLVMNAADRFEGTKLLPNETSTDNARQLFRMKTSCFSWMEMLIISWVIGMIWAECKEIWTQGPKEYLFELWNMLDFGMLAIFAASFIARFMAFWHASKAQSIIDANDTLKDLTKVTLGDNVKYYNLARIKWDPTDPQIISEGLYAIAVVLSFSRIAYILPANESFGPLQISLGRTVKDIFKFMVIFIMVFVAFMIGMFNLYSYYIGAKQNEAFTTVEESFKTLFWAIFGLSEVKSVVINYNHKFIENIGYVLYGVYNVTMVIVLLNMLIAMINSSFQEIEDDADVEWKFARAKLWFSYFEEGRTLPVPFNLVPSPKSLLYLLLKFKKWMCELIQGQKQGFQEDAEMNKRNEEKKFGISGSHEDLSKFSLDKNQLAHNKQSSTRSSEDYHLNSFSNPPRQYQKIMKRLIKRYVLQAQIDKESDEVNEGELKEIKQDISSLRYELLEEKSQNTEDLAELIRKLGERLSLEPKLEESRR
TRPC4 block: inhibitors of mouse TRPC4 channel; AID 2247; actives 0.39% (n = 300,000); B-score at 10 µM; HEK293 TRPC4beta/mu-opioid, DAMGO-evoked Fluo4 calcium flux; active compounds read low;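 active = B-score over 3 SD under the library average, no early fluorescence shift, positive overall ratio signal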
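System: stable TRPC4beta/mu-opioid receptor HEK293 cells; Dosing: single-point compound dosing; Measured by: Fluo4 Ca2+ flux fluorescence; Read-out basis: per-well B score of integrated baseline-normalized Fluo4 ratio.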
PolyA inh: yeast polyadenylation inhibition. actives 0.02% (n = 300,000). calls only at 12 µM. S. cerevisiae SKY197-pL101 polyadenylation reporter, beta-gal luminescence; efflux-impaired pdr1/pdr3 knockout yeast; score 100 = 6 SD above DMSO;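 active = lowest replicate activity score at least 50, where 100 means six control SD above control mean; inconclusive = lowest score under 50 but half or more replicates reach 50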;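 also: yeast exposed to compound for 9 h at 30 °C; higher score means more reporter readthrough which indicates perturbed polyadenylation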
TRPC4 potent: allosteric potentiators of mouse TRPC4 channel. Q9QUQ5. HEK293 TRPC4beta/mu-opioid, DAMGO EC20, Fluo-4 Ca2+ flux; active compounds read high. actives 0.42% (n = 310,000). B-score at 10 µM;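 active = B-score of calcium response area above 5 SD of library B-scores, with initial fluorescence ratio within 5 SD of library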;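 also: B-score of integrated fluorescence ratio over time as area under calcium response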
MrgX1 agonist: agonists of human MrgX1 receptor. B-score at 10 µM. MrgX1-HEK293 cells, Fluo-4 calcium fluorescence, agonist mode; active compounds read high. Q96LB2. actives 0.44% (n = 310,000);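 active = calcium response B-score plate-corrected fluorescence ratio at least 3 library SD, with starting fluorescence B-score inside 5 SD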
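Test system: HEK293 cells stably expressing human MrgX1 receptor; amount: 15,000 cells per well; doses: compound delivered in addition one of three; times: overnight plating before 1 h dye loading; detection: Fluo-4 NW calcium-flux fluorescence, kinetic read; read-out basis: B-scored fluorescence response ratio; controls: positive and negative controls per plate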
TRPC4 act: activators of mouse TRPC4 channel. Q9QUQ5. HEK293 TRPC4beta/mu-opioid, Fluo4 calcium fluorescence; active compounds read high. B-score at 10 µM. actives 0.49% (n = 310,000). AID 2237;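 active = B-score above 5 SD of library B-scores, and initial fluorescence ratio not above library mean plus 5 SD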;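 also: positive B-score marks a calcium rise read as TRPC4 activation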
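Incubation: 45 min room-temperature Fluo4 loading, 110 s read / System: HEK293 cells stably co-expressing mouse TRPC4beta and mu-opioid receptor / Signal: Fluo4 fluorescence, kinetic / Control set: buffer (low) and maximal DAMGO (high) / Measure: integrated baseline-normalised fluorescence ratio, converted to per-well B score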
MrgX1 allo act: allosterically activates human MrgX1 receptor signaling. AID 588675. MrgX1-HEK293, Fluo-4 calcium flux, FDSS; active compounds read high. actives 0.63% (n = 310,000). B-score at 10 µM;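 active = plate-corrected calcium response at least 3 library SD above typical, normal starting fluorescence, not activating the receptor alone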;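 also: compound read alongside a low EC10 to EC30 dose of BAM8-22 agonist; peak minus trough fluorescence over baseline measured at the second addition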
MrgX1 antag: antagonists of human MrgX1 receptor | actives 1.3% (n = 310,000) | Q96LB2 | MRGX1-HEK293 calcium flux, Fluo-4, BAM8-22 antagonism; active compounds read low | B-score at 10 µM;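 active = calcium-response B-score plate-corrected more than 3 library SD below zero, starting fluorescence within 5 deviations, no agonist response on first addition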;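 also: peak minus trough fluorescence over baseline after final BAM8-22 challenge near maximal dose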
TRPC6 inhibitor: blocks the mouse TRPC6 cation channel | HEK293-TRPC6, membrane potential dye, ACh-evoked depolarization; active compounds read low | B-score at 10 µM | AID 2553 | actives 1.1% (n = 310,000) | Q61143;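 active = B-score under library mean minus 3 SD, initial fluorescence not abnormally high, positive integrated signal ratio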;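 also: B-score derived from integrated fluorescence ratio over the kinetic read; more negative B-score means stronger inhibition of depolarization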
AI-2 QS modul: modulators of Vibrio harveyi AI-2 quorum sensing system; Vibrio harveyi JMH597 AI-2 luminescence/OD600 ratio, 9 h; active compounds read low; strain lacks LuxN and CqsS sensors; 0 = neutral-control median; activity change, % at 7.5 µM; actives 0.4% (n = 300,000); AID 2094; in the data active = activity change below about -75%, passing the limit was not always enough; inconclusive = no clear call, values can overlap the other calls;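 also: luminescence divided by OD600 gain over 9 h not by final OD600 alone; inactives centre near 13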
* marks the source's active call; other numbers are inactive results; i = inactive; u = inconclusive; x = no result given.

smiles	TRPC6 act	TRPC4 block	PolyA inh	TRPC4 potent	MrgX1 agonist	TRPC4 act	MrgX1 allo act	MrgX1 antag	TRPC6 inhibitor	AI-2 QS modul
CC[C@H]1CN2CCc3cc(OC)c(OC)cc3[C@@H]2C[C@@H]1C[C@H]1NCCc2cc(OC)c(OC)cc21	i	i	i	i	i	i	i	i	i	14
COC(=O)c1sc(NC(=O)C(C)C)c(C(=O)OC)c1C	i	i	i	i	i	i	i	i	i	17
COC(=O)/C(=C1/Oc2cc(C)oc(=O)c2S1)C(F)(F)F	i	i	i	i	i	i	i	i	i	u
CC(=O)c1cc(C#N)c(SCc2ccncc2)nc1C	i	i	i	i	i	i	i	i	i	7
COc1cc(C2C3C(=O)N(c4ccccc4)C(=O)C3ON2c2ccccc2)ccc1O (stereo unspecified)	i	i	i	i	i	i	i	i	i	25
O=C1OC(N2CCN(C/C=C/c3ccccc3)CC2)c2ccccc21 (stereo unspecified)	i	i	i	i	i	83*	i	i	i	31
CCc1cc2c(nc1CC)CCN(CC/C(C)=N/OC[C@H]1O[C@H](c3ccccc3)C=C[C@@H]1Oc1ccc(OC)cc1)C2	i	i	i	i	x	i	x	x	i	12
CN(C)CC/C=C1/c2ccccc2COc2ccccc21	i	i	i	i	i	i	i	i	i	6
COc1ccc(-n2ncc3c(NCCCn4ccnc4)ncnc32)cc1	i	i	i	i	i	i	i	i	i	34
CC(C)(C)NC[C@H](O)COc1nsnc1N1CCOCC1	i	i	i	i	i	i	i	i	i	26
O=C1CC[C@H](N2C(=O)c3ccccc3C2=O)C(=O)N1	i	i	i	i	i	i	i	i	i	13
Cc1ccc2[nH]c3c(c2c1)CCCC3C(N)=O (stereo unspecified)	i	i	i	i	i	i	i	i	i	18
CCN(CC)CCNC(=O)COc1ccc(OC)cc1	i	i	i	i	i	i	i	i	i	18
CC[C@@]1(O)C(=O)OCc2c1cc1n(c2=O)Cc2cc3c(CN(C)C)c(O)ccc3nc2-1	i	i	i	i	i	i	i	i	i	1
COc1cc(-c2ccc(=O)[nH]n2)ccc1OC(F)F	i	i	i	i	i	i	i	i	i	17
CCC1CC2(C)NC(=O)c3c(sc4c3CC(C)(C)OC4)N2C1=O (stereo unspecified)	i	i	i	i	x	i	x	x	i	5
CSc1cccc(NC(=O)OC2CCCCCCCCCCC2)c1	i	i	i	i	i	i	i	i	i	11
CC(=O)Oc1oc(-c2ccccc2)nc1/C=N/c1ccccn1	i	i	i	i	i	i	i	i	i	20
COc1ccc(OCC(=O)OCCN(C)C)cc1	i	i	i	i	i	i	i	i	i	17
O=C(c1nsnc1-c1ccccc1O)N1CCCCC1	i	i	i	i	i	i	i	i	i	4
Cc1ccc(N(CC(O)CN(C)C)S(=O)(=O)c2ccccc2)cc1 (stereo unspecified)	i	i	i	i	i	i	i	i	i	6
O=C(O)/C(=C\c1ccccc1)c1ccccc1	i	i	i	i	i	i	i	i	i	28
CCc1nc2sc3c(c2c(=O)o1)CCCC3	i	i	i	i	i	i	i	i	i	67
COc1ccc(C2=CC(c3cccc(OC)c3)n3nnnc3N2)cc1 (stereo unspecified)	i	i	i	i	i	i	i	i	i	12
Nc1nc(NC(=O)c2cccs2)nn1-c1ccccc1	i	i	i	i	i	i	i	i	i	43
CCOC(=O)CNC(=O)Nc1ccccc1C(=O)OC	i	i	i	i	i	i	i	i	i	4
CCCCNc1c(C(=O)OCC)c(C)nc2c1cnn2CC	i	i	i	i	i	i	i	i	i	26
Cc1c(C2CC(=O)N(c3ccccc3)C2=O)[nH]n(-c2ccccc2)c1=O (stereo unspecified)	i	i	i	i	i	i	i	i	i	16
CC(O)(C#CCN1CCOCC1)c1ccccc1 (stereo unspecified)	i	i	i	i	x	i	x	x	i	33
COc1ccc(OC)c(C2/C(=C(/O)c3ccccc3)C(=O)C(=O)N2Cc2ccco2)c1 (stereo unspecified)	i	i	x	i	i	i	i	i	i	10

The list goes on; the last 3 above are carried over.
smiles	TRPC6 act	TRPC4 block	PolyA inh	TRPC4 potent	MrgX1 agonist	TRPC4 act	MrgX1 allo act	MrgX1 antag	TRPC6 inhibitor	AI-2 QS modul
Cc1c(C2CC(=O)N(c3ccccc3)C2=O)[nH]n(-c2ccccc2)c1=O (stereo unspecified)	i	i	i	i	i	i	i	i	i	16
CC(O)(C#CCN1CCOCC1)c1ccccc1 (stereo unspecified)	i	i	i	i	x	i	x	x	i	33
COc1ccc(OC)c(C2/C(=C(/O)c3ccccc3)C(=O)C(=O)N2Cc2ccco2)c1 (stereo unspecified)	i	i	x	i	i	i	i	i	i	10
CC(C)Cc1nc(NCCN2CCOCC2)c(C#N)c2c1COC(C)(C)C2	i	i	i	i	i	i	i	i	i	6
CC1(C)CC(=O)C2=C(C1)N(CC1CCCO1)C(=O)C2(O)C(F)(F)F (stereo unspecified)	i	i	i	i	i	i	i	i	i	-1
O=C1CC(c2ccco2)CC(O)=C1C=NCCN1CCN(C2CC(=O)N(c3ccccc3)C2=O)CC1 (stereo unspecified)	i	i	i	i	x	i	x	x	i	9
CC(C)OC(=O)c1c2nc3ccccc3nc2n2c1[nH]c(=O)c1ccccc12	i	i	i	10*	32*	i	i	i	i	25
C#CCN(C)Cc1ccccc1	i	i	i	i	i	i	i	i	i	22
CCN(CC)CCN1C(=O)C(=O)/C(=C(/O)c2ccc(C)cc2)C1c1cccnc1 (stereo unspecified)	i	i	i	i	i	i	i	i	i	15
CCN1CCc2c(C#N)c(N3CCCCC3)nc(N3CCOCC3)c2C1	i	i	i	i	i	i	i	i	i	13
CC(C)C(C(=O)Nc1ncn[nH]1)N1C(=O)c2ccccc2C1=O (stereo unspecified)	i	i	i	i	i	i	i	i	i	12
c1ccc(-c2nn3c(C4CCCCC4)nnc3s2)cc1	i	i	i	i	i	i	i	i	i	-4
O=c1[nH]c(CN2CCCCC2)nc2c1C1(CCCCC1)Cc1ccccc1-2	i	i	i	i	i	i	i	i	i	9
COc1ccc(C2=Nn3c(nnc3-c3ccccc3)SC2)cc1OC	i	i	i	i	i	i	i	i	i	0
CN(C)C(=O)Oc1ccc[n+](C)c1	i	i	i	i	i	i	i	i	i	17
Cc1cc(=O)n2[nH]c(N3C(=O)CCC3=O)nc2n1	i	i	i	i	i	i	i	i	i	16
Cc1cnc2cc(Cl)ccc2c1SCC(=O)O	i	i	i	i	i	i	i	i	i	5
COC(=O)C1=C(C)N=C2SC(C)C(=O)N2C1c1cccs1 (stereo unspecified)	i	i	i	i	i	i	i	i	i	12

Shown with values under each structure: part of the list above
Sequence of screens – TRPC6 act	TRPC4 block	PolyA inh	TRPC4 potent	MrgX1 agonist	TRPC4 act	MrgX1 allo act	MrgX1 antag	TRPC6 inhibitor	AI-2 QS modul
O=C1CC(c2ccco2)CC(O)=C1C=NCCN1CCN(C2CC(=O)N(c3ccccc3)C2=O)CC1 (stereo unspecified)
    i	i	i	i	x	i	x	x	i	9
Cc1ccc2[nH]c3c(c2c1)CCCC3C(N)=O (stereo unspecified)
    i	i	i	i	i	i	i	i	i	18

New compounds follow.
smiles	TRPC6 act	TRPC4 block	PolyA inh	TRPC4 potent	MrgX1 agonist	TRPC4 act	MrgX1 allo act	MrgX1 antag	TRPC6 inhibitor	AI-2 QS modul
CCOC(=O)CSc1nc(N2CCOCC2)c2c(c1C#N)CC(C)(C)N(C)C2	i	i	i	i	i	i	i	i	i	9
CC(=O)O[C@H]1C(=O)[C@]2(C)[C@H]([C@H](OC(=O)c3ccccc3)[C@]3(O)C[C@H](OC(=O)[C@H](O)[C@@H](NC(=O)c4ccccc4)c4ccccc4)C(C)=C1C3(C)C)[C@]1(OC(C)=O)CO[C@@H]1C[C@@H]2O	i	i	i	i	i	i	i	i	i	26
CN1c2ccccc2N(C)C1c1c(O)ccc2ccccc12	i	i	i	i	i	i	i	i	i	12
CC(=O)c1cc(C#N)c(SCC(=O)C(C)(C)C)nc1C	i	i	i	i	i	i	i	i	i	13
Cc1nnc2n(C3CCCCC3)c(=O)c3c4c(sc3n12)COC(C)(C)C4	i	i	i	i	i	i	i	i	i	28
O=C(Nc1nnc(SCc2ccccc2F)s1)c1ccco1	i	i	i	i	i	i	i	i	i	21
Cc1cc(C)nc(CC(N)=O)n1	i	i	i	i	i	i	i	i	i	-3
O=c1cc(O)nc2n1CCCS2	i	i	i	i	i	i	i	i	i	35
Cc1ccc(NC(=O)Cn2nc(C)c3ccccc3c2=O)cc1	i	i	i	i	i	i	i	i	i	-85*
CCC(NC(C)C)C(O)c1ccc(O)c(O)c1 (stereo unspecified)	i	i	i	i	27*	i	i	i	i	0
COC(=O)C(NC(=O)c1ccccc1)(Nc1nc(C)cs1)C(F)(F)F (stereo unspecified)	i	i	i	i	i	i	i	i	i	26
c1ccc(-n2c(Cc3cccnc3)nc3cnccc32)cc1	i	i	i	i	i	i	i	i	i	31
COC(=O)c1ccc(-c2sc3nc(N4CCOCC4)c4c(c3c2N)CC(C)(C)OC4)o1	i	i	i	i	i	i	i	i	i	-1
CSc1nc(NC(C)=O)nc(C)c1Cl	i	i	i	i	x	i	x	x	i	10
CC(C)Cn1c(=O)n(C)c(=O)c2[nH]cnc21	i	i	i	i	i	i	i	i	i	-6
CN1CCN(CC(=O)Nc2nc(-c3ccccc3)cs2)CC1	i	i	i	i	i	i	i	i	i	10
Cc1cc(C)nc(NC2=NCC(=O)N2c2cccc(Cl)c2)n1	i	i	i	i	i	i	i	i	i	16
CC(C)NC[C@@H](O)COc1cccc2ccccc12	i	i	i	i	i	i	i	i	i	24
CCCC(=O)N1CCN(c2nc(CC(C)C)c3c(c2C#N)CCC3)CC1	i	i	i	i	i	i	i	i	i	22

In the list so far, four contain a furan ring, fused or not:
smiles	TRPC6 act	TRPC4 block	PolyA inh	TRPC4 potent	MrgX1 agonist	TRPC4 act	MrgX1 allo act	MrgX1 antag	TRPC6 inhibitor	AI-2 QS modul
COc1ccc(OC)c(C2/C(=C(/O)c3ccccc3)C(=O)C(=O)N2Cc2ccco2)c1 (stereo unspecified)	i	i	x	i	i	i	i	i	i	10
O=C1CC(c2ccco2)CC(O)=C1C=NCCN1CCN(C2CC(=O)N(c3ccccc3)C2=O)CC1 (stereo unspecified)	i	i	i	i	x	i	x	x	i	9
O=C(Nc1nnc(SCc2ccccc2F)s1)c1ccco1	i	i	i	i	i	i	i	i	i	21
COC(=O)c1ccc(-c2sc3nc(N4CCOCC4)c4c(c3c2N)CC(C)(C)OC4)o1	i	i	i	i	i	i	i	i	i	-1

Assay outcomes deposited in PubChem by several laboratories.

This is a subset. The share of hits here may be higher or lower than overall.
